# Anaer choline gr = growth inhibitors of anaerobic choline-fed gram-negatives, minimal medium, absorbance | Gram-negative bacterium anaerobic choline minimal medium; stronger effect = lower value; many inactives read as strong as hits in the columns shown | calls only | actives 0.2% (n = 55,000) | AID 1963822, 2024;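 active means growth z-score on choline under -2 at 7 or 20 h with little or no fall on glycerol, limits in tiers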;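 further: stock transfer was 300 nL into about 50 µL; the organism is E. coli; final concentration not given here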
# Anaer choline gr early = also measured in Anaer choline gr; calls as there; z-score; measured here: choline growth z-score, timepoint 1;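 score of optical density at 7 h as mean of two plates; lower means less growth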
# The depositor's hits bear a star; i = inactive; + = active, no number; & = joins results of further samples. Not all compounds are listed; rates above refer to the full screens.
smiles | Anaer choline gr | Anaer choline gr early
CCC(C)NS(=O)(=O)c1cc2c(cc1C)NC(=O)CO2 (stereo unspecified) | i | 0.13
CC(=O)N1CCc2sc(C(=O)NCCCN3CCCC3=O)cc2C1 | i | -0.15
O=C(NCc1ccc(Cl)cc1)C1CCN(S(=O)(=O)c2cccnc2)CC1 | i | -0.94
O=C(O)c1cc(N=Nc2ccc(O)c(C(=O)O)c2)ccc1O | i | 0.2&0.11
CN(CC1COCCO1)c1ccc(NC(=O)c2ccccc2F)cc1C(=O)O (stereo unspecified) | i | -0.57
CC(=O)N(Cc1ccccc1)c1nc2ccccc2n(CC(=O)Nc2ccc(Cl)cc2)c1=O | i | 0.07
O=C(Cn1ncc2c(N3CCCC3)ncnc21)NC1CC1 | i | -0.38
CC1CCN(C(=O)C2CCN(c3cncnc3N3CCN(C)CC3)CC2)CC1 | i | -2.2
COC(=O)c1ccc(NC(=O)N2CCOc3ccc(COCc4ccc(C)cc4)cc3C2)cc1 | i | -0.01
Cc1cc(N2CCOCC2)nc(Nc2ccc(NS(C)(=O)=O)cc2)n1 | i | 0

# Complete entries, looked up by structure.
# Shown for CC(=O)N(Cc1ccccc1)c1nc2ccccc2n(CC(=O)Nc2ccc(Cl)cc2)c1=O : Anaer choline gr: i; Anaer choline gr early: 0.07
# Shown for O=C(O)c1cc(N=Nc2ccc(O)c(C(=O)O)c2)ccc1O : Anaer choline gr: i; Anaer choline gr early: 0.2&0.11
# Shown for CC1CCN(C(=O)C2CCN(c3cncnc3N3CCN(C)CC3)CC2)CC1 : Anaer choline gr: i; Anaer choline gr early: -2.2

# Going on with the list.
smiles | Anaer choline gr | Anaer choline gr early
COc1cccc(-n2ccn3c(SCC(=O)Nc4ccc(C)cc4)nnc3c2=O)c1 | i | -0.55
COc1ccc(CC(=O)N(C)CCc2noc(C(=O)NCc3ccccc3)n2)cc1 | i | -0.66
O=C(CC1(O)C(=O)Nc2ccccc21)c1cccc(-n2cccc2)c1 (stereo unspecified) | i | -1.4
CN(C)S(=O)(=O)c1ccc(-c2noc(C(=O)NCCc3nc4ccc(F)cc4[nH]3)n2)cc1 | i | -1.1
COc1ccc(N2CC(NC(=O)c3cc4ccccc4o3)CC2=O)cc1 (stereo unspecified) | i | -0.96
Cc1nc(-c2ccccc2)sc1C(=O)Nc1ccc(-n2c(C)nc3ccccc3c2=O)cc1 | i | 0.85
Cc1ccc(N(C(=O)C2CCC(=O)N2)C2(C(=O)NC3CCCC3)CCCCC2)cc1 (stereo unspecified) | i | -1.5
O=C(CN1c2ccc(F)cc2-c2ccccc2S1(=O)=O)Nc1ccc2c(c1)OCCO2 | i | 0.04
Cc1ccccc1-c1nc2c3c4c(sc3ncn2n1)C(C)(C)NC(C)(C)C4 | i | 0.68
O=C(Nc1onc2c1CCCC2)c1ccc(F)cc1 | i | -0.18

# Later entries
smiles | Anaer choline gr | Anaer choline gr early
CCOC(=O)[C@H](CCc1ccccc1)N[C@H]1CCc2ccccc2N(CC(=O)O)C1=O | i | 0.81&0.33
Cc1ccc(NC(=O)c2ccc(F)c(S(=O)(=O)N3CCC(Cc4ccccc4)CC3)c2)cc1F | i | -0.49
O=C(Nc1ccccc1)C1CCCN(c2ncnc3c2oc2ccccc23)C1 (stereo unspecified) | i | -0.35
CC1CCN(S(=O)(=O)c2nn(C)cc2C(=O)NCCc2cccs2)CC1 | i | 1.4
CCCCCNc1nc2c(-c3ccccc3)nnn2c2ccccc12 | i | -0.34
CCCCC(=O)OC1CC[C@H]2[C@@H]3CCc4cc(O)ccc4[C@@H]3CC[C@]12C (stereo partly specified) | i | 0.58
O=C(COc1ccc(F)cc1)Nc1cccc2nsnc12 | i | -1.7
CCCn1c(CCC(=O)O)ccc1-c1ccccc1 | i | 0.18
COCCNC(=O)c1ccc2c(=O)n(CCOC)c(SC(C)C(=O)c3ccc(C)c(C)c3)nc2c1 (stereo unspecified) | i | -0.91
CCc1oc2ccccc2c1C(=O)c1cc(Br)c(O)c(Br)c1 | i | 0.31&0.91

# The list continues:
smiles | Anaer choline gr | Anaer choline gr early
CCCCN(CC)C(=O)C1CCN(c2ncnc3c2oc2ccccc23)CC1 | i | -0.87
O=C(Cn1c(=O)ccc2cc(S(=O)(=O)N3CCCC3)ccc21)N1CC=C(c2ccccc2)CC1 | i | -0.41
O=C(NC1CCCCC1)N1CCN(Cc2nc3cccnc3n2-c2ccc(F)cc2)CC1 | i | 0.23
COc1ccc(NS(=O)(=O)c2cc(-c3noc(C(=O)N4CCCC4)n3)cs2)cc1OC | i | 0.56
Cc1ccc(NC(=O)c2nn(C)c3c2CSc2ccccc2-3)cc1C | i | -0.59
O=S(=O)(c1ccc2c(c1)-c1oncc1CO2)N1CCN(c2ccc(Cl)cc2)CC1 | i | -1
Cc1cccc(-c2noc(-c3nn(-c4cccc(F)c4)ccc3=O)n2)c1 | i | -1
Cc1ccc(S(=O)(=O)c2cnc(N3CCN(c4cc(Cl)ccc4C)CC3)nc2N)cc1 | i | -1.1
CCc1onc(C)c1C1CCCN1Cc1ccc(F)c(F)c1 (stereo unspecified) | i | 1.8
COCCNC(=O)C1(C)Cn2c(cc3ccsc32)C(=O)N1c1ccc(OC)c(OC)c1 (stereo unspecified) | i | 0.09

# New compounds follow.
smiles | Anaer choline gr | Anaer choline gr early
COc1ccc(CNS(=O)(=O)c2cc(/C=C\c3onc(C)c3NC(C)=O)ccc2C)cc1 | i | -0.37
COC(=O)c1c(-c2ccccc2)noc1NCc1cccc(Br)c1 | i | 1.1
CC(C)(NC(=O)c1ccoc1)c1nc2c(c(C(N)=O)n1)OCO2 | i | -0.14
COc1cccc(CNC2=NCCNC23CCCCCC3)c1 | i | -0.05
COc1ccccc1C(Nc1ccccn1)c1cc(C)sc1NC(=O)c1ccccc1 (stereo unspecified) | i | 0.54
CN1C(=O)c2cc(NC(=O)c3cccc(Cl)c3)ccc2N2CCN=C12 | i | -0.85
Cc1ccc(S(=O)(=O)NC(C(=O)N2CCN(c3ccc(-c4noc(C)n4)cc3)CC2)C(C)C)cc1 (stereo unspecified) | i | 0.48
COc1cccc(NC(=O)N2CCN(c3nc4cc(F)ccc4n4cccc34)CC2)c1 | i | -1
Cn1c(=O)c2sccc2n2c(CCC(=O)N3CCC(C(N)=O)CC3)nnc12 | i | -0.71
COc1ccc(C2C(C(=O)O)c3ccccc3C(=O)N2Cc2ccc(F)cc2)cc1 (stereo unspecified) | i | 1.3

# (list continues)
smiles | Anaer choline gr | Anaer choline gr early
CCSc1nccn2nc(-c3ccc(F)cc3)cc12 | i | -0.58
COc1ccc(CNC(=O)c2nc(-c3cn(-c4ccccc4)nc3C)no2)cc1 | i | 0.31
COc1cc(Cl)c(NS(=O)(=O)c2c(C)sc(C)c2-c2cc(C(F)(F)F)on2)c(OC)c1 | i | 0.7
CCC(=O)N1CCc2cc(-c3ccc(C(=O)NCCc4c[nH]c5ccc(OC)cc45)cc3)ccc21 | i | -0.1
O=C(NC1CCCCC1)N1CCc2cc(S(=O)(=O)NCC3CCCO3)ccc21 (stereo unspecified) | i | -0.35
O=C(c1csc(S(=O)(=O)NC2CCCC2)c1)N1CCCC1 | i | 0.08
CCCCCCCCCCCCCC(=O)N[C@@H](C)[C@H](O)c1ccccc1 | i | 0.21
Cc1cccc(CN2CC=C(C(=O)Nc3ccc(C)c(C)c3)CC2)c1 | i | -0.39
O=C(Cn1cccc1)NCCc1ccc(Cl)cc1 | i | -1.3
CCCCC[C@@H](O)/C=C/[C@@H]1[C@H](C/C=C\CCCC(=O)O)[C@@H](O)C[C@H]1O | i | -0.15

# Remaining list, next part:
smiles | Anaer choline gr | Anaer choline gr early
COc1cc2c(Nc3ccc(NC(=O)c4ccccc4)cc3)ncnc2cc1OCCCN1CCOCC1 | i | 0.31
CCc1c(C)nc2ncnn2c1NCc1ccccc1 | i | 0.48
NS(=O)(=O)c1ccc(NS(=O)(=O)c2ccc3onc(C(=O)N4CCCC4)c3c2)cc1 | i | -1.8
O=C(Nc1ccccc1)c1ccc(=O)n(Cc2cccc(F)c2)n1 | i | 0.82
CC1CCN(C(=O)Cn2ncn3c(cc4sccc43)c2=O)CC1 | i | -0.34
Cc1ccc(-c2ccc(N3CCCC(C(=O)NCCC4=CCCCC4)C3)nn2)cc1 (stereo unspecified) | i | -0.75
Cc1ccc(N2CC(C(=O)NCc3nnnn3-c3ccccc3)CC2=O)cc1 (stereo unspecified) | i | -0.07
COc1ccc(NC(=O)Cn2c(=O)ccc3cc(S(=O)(=O)N4CCCC4)ccc32)cc1 | i | 1.5
CC(C)Oc1ccc(CNC(=O)CN2C(=O)CSc3sc(S(=O)(=O)N4CCCC4)cc32)cc1 | i | 0.63
CCCc1cc(Sc2ccc(NC(=O)c3ccccc3Br)cc2)n2ncnc2n1 | i | -1.7

# Continuation:
smiles | Anaer choline gr | Anaer choline gr early
COC(=O)c1ccccc1NC(=O)CSc1ncc(S(=O)(=O)c2ccc(OC)c(Cl)c2)c(=O)[nH]1 | i | 0.98
O=C(Nc1ccc(F)cc1)c1nnc(C2CCCN(C(=O)Nc3cccc(Cl)c3)C2)s1 (stereo unspecified) | i | 1.4
Cc1cccc(NC(=O)c2c(C)oc3ncnc(N4CCCCC4)c23)n1 | i | 0.15
CCc1onc(C)c1C1CCCN1C(=O)c1ccn(C)n1 (stereo unspecified) | i | 0.19
COc1ccccc1NC(=O)Cn1c(=O)n(-c2ccc(CC(=O)NC3CC3)cc2)c(=O)c2ccccc21 | i | 0.55
COc1cccc(NC(=O)Cn2c(=O)n(Cc3ccc4c(c3)OCO4)c(=O)c3oc4ccccc4c32)c1 | i | -1.3
CC1CCN(C(=O)c2c[nH]c3ccc(F)cc3c2=O)CC1 | i | 0.35
O=C(c1cccnc1)N1CCc2c([nH]c3ccccc23)C1c1ccccc1 (stereo unspecified) | i | -0.19
CCCCCCCCCCCCCCCC(=O)NCCO | i | 0.2&0.71&0.26
COc1ccccc1NC(=O)N1Cc2cccn2-c2ccccc21 | i | 0.67

# Next compounds follow:
smiles | Anaer choline gr | Anaer choline gr early
Cc1cc(C)cc(NC(=O)Cc2ccc(OC(C)(C)C(=O)O)cc2)c1 | i | 0.01
O=C(NCc1ccnc(N2CCCCC2)c1)Nc1ccc(F)c(Cl)c1 | + | -2.5*
CCOc1ccc(N2C(=O)c3ccccc3NC2c2ccc(C(=O)O)cc2)cc1 (stereo unspecified) | i | -0.29
CCOc1ccc2oc(C)c(C(=O)Nc3ccc(OC)cc3)c2c1 | i | 2.1
COc1ccc(C[C@@H]2c3cc(OC)c(OC)cc3CC[N@+]2(C)CCC(=O)OCCCCCOC(=O)CC[N@@+]2(C)CCc3cc(OC)c(OC)cc3[C@H]2Cc2ccc(OC)c(OC)c2)cc1OC | i | -0.28
O=C(Nc1ccc(F)cc1)Nc1ccc(-c2nnc(-c3ccccc3)o2)cc1 | i | -1
CC(C)Oc1ccc(C(=O)NCCc2csc(-c3ccccc3)n2)cc1 | i | -0.08
Cc1cn2c(=O)cc(COc3ccc(NC(=O)CC(C)C)cc3)nc2s1 | i | -0.09
CC(C)C(=O)Nc1cccc(-c2nc(-c3ccccc3)no2)c1 | i | 1.1
COc1ccc(C(=O)Nc2cc3c(cc2OC)n(C)c(=O)n3C)cc1 | i | -0.71

# More structures:
smiles | Anaer choline gr | Anaer choline gr early
Nc1nc(S(=O)(=O)Cc2ccc(F)cc2)ns1 | i | -3.8
CCOC(=O)C1=C(C)NC(C)=C(C(=O)OCC)C1c1c(F)c(F)c(F)c(F)c1F | i | 0.13
CC(C)n1cnc2nc(CSc3ccccc3NC(=O)c3cccc(Br)c3)cc(=O)n21 | i | -1.2
COc1ccc(S(=O)(=O)NC2CCN(C(=O)c3cc4ccccc4[nH]3)CC2)cc1 | i | -0.24
O=C(NCCCN1CCC(N2CCCCC2)CC1)C1CCCN(c2nc3ccccc3[nH]2)C1 (stereo unspecified) | i | 0.1
CCN1CCN(S(=O)(=O)c2cc(-c3nc(C)cs3)n(CC(=O)N3CCCCC3)c2)CC1 | i | -0.55
Cc1nc(S(=O)(=O)N2CCC(C(=O)N3CCN(c4ccccc4)CC3)CC2)cn1C | i | -0.59
Cc1cc(-c2cc(S(=O)(=O)N3CCN(C4CCCCC4)CC3)c(C)s2)n[nH]1 | i | -0.39
O=C(Cn1c2ncccc2c(=O)n1-c1ccccc1)NCc1ccccc1Cl | i | -1
O=C(O)/C=C/c1ccc(Cn2ccnc2)cc1 | i | -0.4&1&0.42

# In the list so far, 4 have bromine:
smiles | Anaer choline gr | Anaer choline gr early
CCc1oc2ccccc2c1C(=O)c1cc(Br)c(O)c(Br)c1 | i | 0.31&0.91
COC(=O)c1c(-c2ccccc2)noc1NCc1cccc(Br)c1 | i | 1.1
CCCc1cc(Sc2ccc(NC(=O)c3ccccc3Br)cc2)n2ncnc2n1 | i | -1.7
CC(C)n1cnc2nc(CSc3ccccc3NC(=O)c3cccc(Br)c3)cc(=O)n21 | i | -1.2

# Later entries
smiles | Anaer choline gr | Anaer choline gr early
Cc1nc(Nc2ccc(NS(=O)(=O)c3cccc(Br)c3)cc2)cc(N2CCOCC2)n1 | i | -0.06
CCC(=O)Nc1cccc(-c2noc(C3CCCN(C(=O)c4ccc(C)c(C)c4)C3)n2)c1 (stereo unspecified) | i | 0.28
CC(C)NC(=O)Cn1c(=O)n(-c2ccc(CC(=O)NC3CCCCC3)cc2)c(=O)c2ccccc21 | i | 0.38
Cc1ccc(C)c(N2CCN(CCCNC(=O)c3c(-c4ccccn4)noc3C)CC2)c1 | i | -0.77
O=C(CC1C(=O)NCCN1C(=O)NC1CCCCC1)Nc1ccc(F)cc1 (stereo unspecified) | i | 0.08
Cc1nn(C)c(C)c1CCN(C)C(=O)Nc1ccc(F)cc1 | i | -2.8
Cc1ccc(C)c(Cn2nc3c(S(=O)(=O)N4CCN(c5ccc(F)cc5)CC4)cccn3c2=O)c1 | i | 0.6
O=S(=O)(c1ccccc1)N1CCn2cccc2C1c1ccc(F)cc1 (stereo unspecified) | i | 0.45

# Source: PubChem
